Vaccinia stage: blocks a specific stage of Vaccinia orthopoxvirus infection; Vaccinia-infected cells, mCherry/Venus stage reporter fluorescence; hits give low values; some inactives read as strong as hits; hit rate 0.01% among 89,000; activity change (mCherry), % (no concentration beside the values); AID 1053133;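 active means mCherry past -33% and 40 or more points under the early reporter, replicates agreeing; inconclusive means past -33% without that gap or agreement; tested in A549 cells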;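 further: scaled between vehicle wells and reference inhibitor wells; 23 nL library stock went into each well; one replicate is shown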
Vaccinia stage Venus: second read-out of Vaccinia stage, no call of its own (marks repeat the call); activity change (Venus), %; measured here: Venus reporter, other viral stage;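 negative = less Venus signal; first of two replicates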
Numbers without * were called inactive; ? = inconclusive; . = not tested or not shown.

Compound	Vaccinia stage	Vaccinia stage Venus
C[C@H](CO)N1C[C@H](C)[C@@H](CN(C)C)Oc2cc(-c3cccnc3)ccc2S1(=O)=O	-1	5
C[C@H]1CN([C@@H](C)CO)C(=O)c2cc(C#Cc3ccccc3)cnc2O[C@H]1CN(C)CC1CCOCC1	-6	3
C[C@@H]1CCCCO[C@H](CN(C)CC2CCCCC2)[C@@H](C)CN([C@H](C)CO)C(=O)c2cc(NC(=O)Nc3ccc(C(F)(F)F)cc3)ccc2O1	3	2
C[C@H](CO)N1C[C@H](C)[C@@H](CN(C)Cc2ccc(Cl)c(Cl)c2)Oc2ccc(NC(=O)CCC(F)(F)F)cc2CC1=O	?	.
CCCNC(=O)N[C@H]1CC[C@@H](CC(=O)N2CCN(C)CC2)O[C@@H]1CO	10	11
COc1ccc(CNC(=O)C[C@@H]2CC[C@@H](NS(=O)(=O)c3cccc(OC)c3)[C@H](CO)O2)cc1	-1	-2
CN(C)C(=O)c1ccc(-c2ccc([C@@H]3[C@H](CO)N4CCCCN(C(=O)C5CC5)C[C@@H]34)cc2)cc1	23	6
CC=Cc1ccc2n(c1=O)C[C@@H]1[C@@H](CO)[C@H](C(=O)N[C@@H](C)c3ccccc3)[C@H]2N1Cc1cccnc1 (mixture of isomers)	1	-1
C[C@@H]1CCCCO[C@@H](CN(C)C(=O)C2CCCCC2)[C@H](C)CN([C@H](C)CO)C(=O)c2cc(NC(=O)C3CCCCC3)ccc2O1	?	.
CC(=O)N1[C@H](C(=O)Nc2ccccc2)[C@@H](CO)[C@@H]2Cn3c(ccc(C4=CCCCC4)c3=O)[C@@H]21	19	10
COc1ccc(-c2ccc3c(c2)[C@@H]2[C@@H](CCN2C(=O)C2CCCCC2)[C@@H](CO)N3C)cc1	-31	-24
C[C@H](O)C#Cc1ccc([C@H]2[C@@H](CO)N3CCCCN(C(=O)c4ccc(F)cc4)C[C@H]23)cc1	23	-4
COc1ccc(CNC(=O)C[C@@H]2C=C[C@H](NC(=O)c3cccc(F)c3)[C@H](CO)O2)cc1	-10	1
COC(=O)C[C@H]1CC[C@H]2[C@@H](COC[C@H](O)CN2S(=O)(=O)c2ccccc2OC)O1	5	1
O=C(N[C@H]1CC[C@@H](CCn2cc(C3(O)CCCC3)nn2)O[C@H]1CO)C1CC1	2	7
COc1ccccc1C(=O)N1C[C@H]2[C@@H](c3ccccc31)[C@@H](CO)N2C(=O)Cc1ccccc1	10	15
CC(=O)N1[C@H](CO)[C@@H]2c3ccccc3N(S(=O)(=O)c3ccccc3C)C[C@@H]21	5	-2
N#C[C@@H]1[C@H](c2ccc(C#Cc3ccccc3F)cc2)[C@H](CO)N1C(=O)C1CCC1	-24	-15
C[C@H](CO)N1C[C@H](C)[C@@H](CN(C)S(=O)(=O)c2cn(C)cn2)OCCCC[C@H](C)Oc2ccc(NS(=O)(=O)c3ccccc3)cc2C1=O	4	1
Cc1ccc(S(=O)(=O)Nc2cccc3c2O[C@H](CN(C)CC2CC2)[C@@H](C)CN([C@H](C)CO)C3=O)cc1	9	24
CCCN1C[C@@H](C)[C@H](OC)CN(C)C(=O)c2ccc(NC(=O)C3CCOCC3)cc2OC[C@@H]1C	17	12
COc1ccc(S(=O)(=O)N(C)C[C@H]2Oc3cc(C#CC4CCCC4)ccc3S(=O)(=O)N([C@@H](C)CO)C[C@@H]2C)cc1	?	.
COc1ccc2c3c(n(C)c2c1)[C@H](CO)N(CC1CC1)CC31CCN(C(=O)c2cccc(F)c2)CC1	-9	-7
C[C@H]1CN([C@@H](C)CO)C(=O)Cc2cc(NC(=O)Nc3cccc4ccccc34)ccc2O[C@H]1CN(C)Cc1ccncc1	-16	-10
Cc1noc(C)c1NC(=O)Nc1ccc2c(c1)CC(=O)N([C@H](C)CO)C[C@@H](C)[C@@H](CN(C)S(=O)(=O)c1c(C)noc1C)O2	3	-4
CCCC(=O)N1CCC2(CC1)CN(C(C)=O)[C@H](CO)c1c2c2ccc(OC)cc2n1C	4	5
CCCNC(=O)Nc1ccc2c(c1)C(=O)N(C)[C@@H]1CC[C@@H](CC(=O)NCc3ccccc3)O[C@H]1CO2	-8	-15
COc1ccc(S(=O)(=O)N[C@H]2C=C[C@H](CC(=O)N3CCN(c4ccccc4)CC3)O[C@@H]2CO)cc1	17	12
C[C@H](CO)N1C[C@H](C)[C@H](CN(C)S(C)(=O)=O)Oc2ccc(NC(=O)c3ccncc3)cc2C1=O	7	1
C[C@H]1CN([C@@H](C)CO)S(=O)(=O)c2ccc(-c3ccccc3F)cc2O[C@H]1CN(C)S(C)(=O)=O	3	-3
O=C(CCN1CCCCC1)N[C@@H]1CC[C@@H](CCn2cc(-c3cccc(F)c3)nn2)O[C@@H]1CO	4	2
CC(C)CC#Cc1ccc([C@@H]2[C@@H](CO)N3CCCCN(C(=O)NC4CCCC4)C[C@@H]23)cc1	?	.
COc1ccc(CN(C)C[C@H]2OCCCC[C@H](C)Oc3ccc(NS(=O)(=O)c4ccc(F)cc4)cc3C(=O)N([C@H](C)CO)C[C@@H]2C)cc1	?	.
Cc1ccc(S(=O)(=O)N(C)C[C@H]2Oc3c(NC(=O)Nc4cccc5ccccc45)cccc3C(=O)N([C@H](C)CO)C[C@@H]2C)cc1	10	5
C[C@@H]1CCCCO[C@@H](CN(C)C(=O)c2ccccc2)[C@@H](C)CN([C@@H](C)CO)C(=O)c2cc(NS(=O)(=O)c3ccc(Cl)cc3)ccc2O1	-33	-34
CC=Cc1ccc2n(c1=O)C[C@H]1[C@H](CO)[C@@H](C(=O)NCCC)[C@@H]2N1C(=O)Nc1cc(F)ccc1F (mixture of isomers)	8	12
COc1ccc(NC(=O)Nc2ccc3c(c2)C(=O)N([C@H](C)CO)C[C@@H](C)[C@@H](CN(C)Cc2ccc(C(F)(F)F)cc2)O3)cc1	?	.
C[C@@H]1CN([C@@H](C)CO)C(=O)c2cc(-c3cccnc3)cnc2O[C@@H]1CN(C)C(=O)c1cccc(F)c1	9	5
C[C@@H]1CN([C@H](C)CO)S(=O)(=O)c2ccc(C#CCC3CCCC3)cc2O[C@@H]1CN(C)C(=O)CC1CC1	?	.
O=C(NC1CCCC1)N1CCCCN2[C@@H](CO)[C@@H](c3ccc(-c4cccnc4)cc3)[C@@H]2C1	-11	-7
OC[C@H]1[C@@H](c2ccc(-c3cccnc3)cc2)[C@H]2CN(CC3CC3)CCCCN21	9	-3
CC(C)(O)C#Cc1ccc([C@H]2[C@H]3CN(C(=O)c4ccc(F)cc4)CCCCN3[C@H]2CO)cc1	8	-13
Cc1ccc(S(=O)(=O)Nc2ccc3c(c2)C(=O)N([C@H](C)CO)C[C@H](C)[C@H](CN(C)C(=O)c2ccccc2)OCCCC[C@@H](C)O3)cc1	23	5
CCS(=O)(=O)Nc1ccc2c(c1)C(=O)N(C)C[C@@H](OC)[C@H](C)CN(C(=O)NC(C)C)[C@H](C)CO2	14	14
CCC(=O)Nc1ccc2c(c1)C(=O)N(C)C[C@H](OC)[C@@H](C)CN(C(=O)CC1CC1)[C@@H](C)CO2	12	9
C[C@H]1CN([C@@H](C)CO)C(=O)Cc2cc(NC(=O)CCC(F)(F)F)ccc2O[C@@H]1CN(C)Cc1ccc(C(=O)O)cc1	13	3
CNC(=O)C[C@@H]1CC[C@@H]2[C@H](COc3ccc(NC(=O)Nc4cc(C)cc(C)c4)cc3C(=O)N2C)O1	5	-1
C[C@@H]1CN([C@@H](C)CO)C(=O)Cc2cc(NC(=O)C3CCCCC3)ccc2O[C@@H]1CN(C)S(=O)(=O)c1cn(C)cn1	12	7
CO[C@H]1CN(C)C(=O)c2cc(NS(C)(=O)=O)ccc2OC[C@H](C)N(C(=O)c2ccc3c(c2)OCO3)C[C@H]1C	19	10
C[C@@H]1CN([C@@H](C)CO)S(=O)(=O)c2ccc(C#Cc3ccncc3)cc2O[C@H]1CN(C)C(=O)C1CC1	12	-1
C[C@H]1CN([C@@H](C)CO)C(=O)c2cc(C#Cc3cccc(F)c3)cnc2O[C@@H]1CN(C)C(=O)c1ccccc1F	-28	-22
C[C@H](CO)N1C[C@H](C)[C@H](CN(C)C)Oc2cc(C3=CCCC3)ccc2S1(=O)=O	-33	-24
CC(C)NC(=O)N(C)C[C@H]1Oc2ncc(-c3cccc(C#N)c3)cc2C(=O)N([C@@H](C)CO)C[C@@H]1C	20	14
C[C@H](CO)N1C[C@H](C)[C@@H](CN(C)Cc2ccncc2)OCCCC[C@H](C)Oc2ccc(NS(C)(=O)=O)cc2C1=O	2	20
COc1ccc(NC(=O)N(C)C[C@@H]2OCCCC[C@H](C)Oc3ccc(NC(=O)CCCN(C)C)cc3C(=O)N([C@H](C)CO)C[C@@H]2C)cc1	29	11
C[C@@H]1CN([C@@H](C)CO)C(=O)c2cc(C#Cc3ccccc3)cnc2O[C@H]1CN(C)CC1CCOCC1	-32	-13
CCCNC(=O)Nc1ccc2c(c1)C(=O)N(C)C[C@H](OC)[C@@H](C)CN(C(=O)C1CC1)[C@H](C)CO2	-7	-8
C[C@H](CO)N1C[C@H](C)[C@H](CN(C)Cc2ccncc2)Oc2ncc(C#Cc3ccc(F)cc3)cc2C1=O	0	-9
COc1ccc(-c2ccc([C@@H]3[C@@H](C#N)N(C(=O)C4CCOCC4)[C@H]3CO)cc2)cc1	17	9
CC(C)NC(=O)N[C@H]1CC[C@H](CC(=O)NCCN2CCCC2)O[C@H]1CO	6	-1

Next part (three carried over from the part before).
Compound	Vaccinia stage	Vaccinia stage Venus
C[C@H](CO)N1C[C@H](C)[C@H](CN(C)Cc2ccncc2)Oc2ncc(C#Cc3ccc(F)cc3)cc2C1=O	0	-9
COc1ccc(-c2ccc([C@@H]3[C@@H](C#N)N(C(=O)C4CCOCC4)[C@H]3CO)cc2)cc1	17	9
CC(C)NC(=O)N[C@H]1CC[C@H](CC(=O)NCCN2CCCC2)O[C@H]1CO	6	-1
Cc1noc(C)c1NC(=O)Nc1ccc2c(c1)C(=O)N([C@@H](C)CO)C[C@H](C)[C@H](CN(C)S(=O)(=O)c1cccs1)OCCCC[C@H](C)O2	11	7
COc1ccc(NC(=O)N(C)C[C@H]2OCc3ccccc3-c3ccccc3C(=O)N([C@H](C)CO)C[C@H]2C)cc1	32	22
O=C(C[C@H]1C=C[C@@H](NC(=O)c2ccc(F)cc2)[C@H](CO)O1)NCCc1ccccc1	-5	0
O=C(C[C@@H]1C[C@@H]2c3cc(NC(=O)c4ccc5c(c4)OCO5)ccc3O[C@@H]2[C@@H](CO)O1)NC1CCCC1	11	7
CCCNC(=O)N(C)C[C@H]1Oc2ncc(-c3ccccc3F)cc2C(=O)N([C@H](C)CO)C[C@H]1C	-11	-1
C[C@H](CO)N1C[C@H](C)[C@H](CN(C)C(=O)C2CCOCC2)Oc2ncc(Br)cc2C1=O	18	13
CN(C)C(=O)c1ccc(-c2ccc([C@H]3[C@@H](CO)N4CCCCN(C(=O)C5CC5)C[C@H]34)cc2)cc1	7	-3
CO[C@@H]1CN(C)C(=O)c2ccc(NC(=O)C3CCCC3)cc2OC[C@H](C)NC[C@H]1C	-6	-6
COCCOC(=O)N1C(=O)[C@@]2(c3cc(C#CCNC(N)=O)ccc31)[C@H](C(=O)N1CCN(c3ncccn3)CC1)[C@H]1C(=O)O[C@H](c3ccccc3)[C@H](c3ccccc3)N1[C@@H]2c1ccccc1OCCO	12	11
CCC(=O)NC[C@@H]1[C@H](c2ccccc2)[C@@H](CO)N1C(=O)C1CC1	25	16
C[C@@H]1CN([C@@H](C)CO)C(=O)c2cc(NS(=O)(=O)c3ccccc3)ccc2O[C@H]1CN(C)S(=O)(=O)c1cccs1	13	5
CC(=O)N(C)C[C@H]1Oc2cc(-c3ccccc3F)ccc2S(=O)(=O)N([C@@H](C)CO)C[C@H]1C	7	6
CN(C)C(=O)c1ccc(-c2ccccc2[C@@H]2[C@@H](C#N)N(C(=O)C3CCCC3)[C@H]2CO)cc1	7	0
CNC[C@H]1Oc2c(NS(C)(=O)=O)cccc2C(=O)N([C@H](C)CO)C[C@@H]1C	9	14
C[C@H](CO)N1C[C@H](C)[C@H](CN(C)Cc2ccc(C(=O)O)cc2)Oc2ccc(NS(C)(=O)=O)cc2C1=O	11	5
O=C(C[C@@H]1CC[C@@H]2[C@H](COC[C@@H](O)CN2C(=O)Nc2ccc(Cl)c(Cl)c2)O1)NCc1ccncc1	?	.
C[C@H](CO)N1C[C@H](C)[C@@H](CN(C)C(=O)Cc2ccccc2)Oc2ncc(C#CCN(C)C)cc2C1=O	-7	-4
CCCC(=O)Nc1ccc2c(c1)OC[C@@H](C)N(C)C[C@@H](C)[C@@H](OC)CN(C)C2=O	-4	-8
C[C@H](CO)N1C[C@H](C)[C@H](CN(C)S(C)(=O)=O)Oc2ccc(NC(=O)C3CC3)cc2C1=O	8	1

Compounds listed so far with two or more sulfur atoms (five):
Compound	Vaccinia stage	Vaccinia stage Venus
C[C@H](CO)N1C[C@H](C)[C@@H](CN(C)S(=O)(=O)c2cn(C)cn2)OCCCC[C@H](C)Oc2ccc(NS(=O)(=O)c3ccccc3)cc2C1=O	4	1
COc1ccc(S(=O)(=O)N(C)C[C@H]2Oc3cc(C#CC4CCCC4)ccc3S(=O)(=O)N([C@@H](C)CO)C[C@@H]2C)cc1	?	.
C[C@H]1CN([C@@H](C)CO)S(=O)(=O)c2ccc(-c3ccccc3F)cc2O[C@H]1CN(C)S(C)(=O)=O	3	-3
Cc1noc(C)c1NC(=O)Nc1ccc2c(c1)C(=O)N([C@@H](C)CO)C[C@H](C)[C@H](CN(C)S(=O)(=O)c1cccs1)OCCCC[C@H](C)O2	11	7
C[C@@H]1CN([C@@H](C)CO)C(=O)c2cc(NS(=O)(=O)c3ccccc3)ccc2O[C@H]1CN(C)S(=O)(=O)c1cccs1	13	5

Compound activity (PubChem)

These rows are one share of the data; the hit share may differ from the screen's.
